Source: PubChem BioAssay
AF4-AF9 inh – MLL-AF4/AF9 protein interaction inhibition; P42568; AlphaScreen, biotin-AF4 peptide binding to FLAG-AF9; inhibition, % at 10 µM; 0.47% of 350,000 active;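 active = every replicate reaching a set inhibition limit, whatever the replicate mean, cut at about 25% in these data; inconclusive = mean inhibition reaches that limit but some replicates miss it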;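 note: 0% = plate neutral control median and 100% = total signal loss; the record names both 10 and 1 µM as test concentration; the first replicate is given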
Target sequence (P42568 whole entry, looked up): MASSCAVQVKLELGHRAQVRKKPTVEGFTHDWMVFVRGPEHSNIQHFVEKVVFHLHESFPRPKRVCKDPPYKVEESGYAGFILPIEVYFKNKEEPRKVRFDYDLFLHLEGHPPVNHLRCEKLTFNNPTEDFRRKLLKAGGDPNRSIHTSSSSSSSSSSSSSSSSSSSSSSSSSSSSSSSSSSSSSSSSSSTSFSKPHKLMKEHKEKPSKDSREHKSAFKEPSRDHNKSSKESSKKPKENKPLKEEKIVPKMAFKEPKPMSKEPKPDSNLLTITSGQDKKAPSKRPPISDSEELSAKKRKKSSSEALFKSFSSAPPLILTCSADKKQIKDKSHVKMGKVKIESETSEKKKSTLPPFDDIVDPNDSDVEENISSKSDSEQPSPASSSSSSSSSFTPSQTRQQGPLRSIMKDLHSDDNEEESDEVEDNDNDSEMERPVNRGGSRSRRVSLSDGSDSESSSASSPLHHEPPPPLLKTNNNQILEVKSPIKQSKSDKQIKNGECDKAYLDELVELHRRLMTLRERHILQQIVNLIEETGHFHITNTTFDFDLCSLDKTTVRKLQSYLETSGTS
ALR H2O2 inh – inhibitors of human sulfhydryl oxidase ALR. P55789. purified ALR, DTT oxidation, H2O2 HRP-luminol luminescence. inhibition, % (test concentration not listed). 3.8% of 290,000 active;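 active = mean and each replicate at 75% or more; inconclusive = only one of the two met; inactive = neither met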;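 note: stock transfer was 7.5 nL into about 7.5 µL; 0% = neutral wells and 100% = wells with inactivated enzyme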
Target sequence (P55789 whole entry, looked up): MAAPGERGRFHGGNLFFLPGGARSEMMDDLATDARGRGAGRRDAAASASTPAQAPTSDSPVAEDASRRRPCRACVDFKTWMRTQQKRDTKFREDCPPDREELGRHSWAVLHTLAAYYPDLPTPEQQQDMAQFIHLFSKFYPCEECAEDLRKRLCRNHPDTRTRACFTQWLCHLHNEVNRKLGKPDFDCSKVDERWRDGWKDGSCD
Vif A3G – HIV-1 Vif–A3G interaction blockers – biochemical, TR-FRET, GST-Vif 1-94, biotin-A3G peptide, dose response retest, primary screen (AID 1117319) | inhibition, %, or IC50 in µM where a hit was titrated | 0.57% of 260,000 active | TR-FRET GST-Vif / biotin-A3G peptide binding; higher % means a stronger effect; test concentration not given here; strong numbers were not always called active;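 active = above the screen mean plus three standard deviations and confirmed in dose response; inconclusive = results disagree or hit not tested in dose response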;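 note: Vif residues 1-94 fused to GST binding biotinylated APOBEC3G peptide 110-148; 0% = full assay without inhibitor and 100% = GST in place of GST-Vif; retest series ran down from 100 µM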
Ecoli growth – inhibitors of Escherichia coli growth | OD600, 23 h; active compounds read low | OD600 absorbance (test concentration not listed) | 0.21% of 330,000 active | AID 1053175;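 active = OD600 absorbance below the run mean of sample wells minus 3.6 SD, in any replicate, cut at about 0.56 in these data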;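 note: stock transfer was 300 nL into about 60 µL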
FGF22 binding – FGF22 (human) thermal shift binding; calls only at 9.99 µM; Q9HCT0; recombinant FGF22 thermal shift, SYPRO orange fluorescence; percent of sucrose octasulfate shift, DMSO zero; AID 651658; 1.5% of 340,000 active;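 active = melting point raised past a set limit in the mean and every replicate; inconclusive = no clear call; three in four hits are not shown here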
Target sequence (Q9HCT0 whole entry, looked up): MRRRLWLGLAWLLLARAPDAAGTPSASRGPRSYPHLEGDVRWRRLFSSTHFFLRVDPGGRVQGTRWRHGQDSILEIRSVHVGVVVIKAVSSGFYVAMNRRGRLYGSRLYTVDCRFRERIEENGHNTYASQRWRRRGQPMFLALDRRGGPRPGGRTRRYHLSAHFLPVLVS
HNF4A DNA FP – change in binding of human HNF4 alpha to DNA; HNF4a-FITC DNA binding, fluorescence polarization, 1 h; activity change, % at 10 µM; 0.3% of 360,000 active; in the data active = activity change above about 30%, passing the limit was not always enough;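 note: controls were the assay level and a saturating level of protein; the project sought stronger binding though the title names inhibitors; some compounds called inactive have numbers as strong as hits; positive values seem to mean higher polarization but the record does not say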
Ecoli rRNA inh – inhibitors of bacterial rRNA selective over humanized ribosomes; E. coli WT GFP vs humanized-ribosome RFP mutants, fluorescence, 24 h; active compounds read low; DMSO median 0, no signal -100; GFP signal change (wild-type ribosome), % (no concentration beside the values); 1.6% of 350,000 active; AID 720706;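 active = significant combined selectivity score with lowered wild-type GFP, culture density cut under 30%, mutant RFP and density less affected; inactive = any of these conditions unmet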; note: one replicate is shown; some compounds called inactive have numbers as strong as hits
Ecoli rRNA inh OD600 – further read-out of Ecoli rRNA inh, marked with its call; OD600 change, %; measured here: OD600 growth;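 optical density of the mix in the first replicate; 0 = DMSO median and -100 = no signal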
Ecoli rRNA inh RFP – second read-out of Ecoli rRNA inh, no call of its own (marks repeat the call); RFP signal change, %; measured here: RFP humanized mutant strains;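 first replicate; 0 = DMSO median and -100 = no signal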
* hit, by the source's call; i = inactive; ? = inconclusive; . = no result given; & = joins results of further samples. Only part of the results is shown (hit frequency here may not be typical).

SMILES	AF4-AF9 inh	ALR H2O2 inh	Vif A3G	Ecoli growth	FGF22 binding	HNF4A DNA FP	Ecoli rRNA inh	Ecoli rRNA inh OD600	Ecoli rRNA inh RFP
COc1ccc(OCCn2cnc(Cl)c2Cl)cc1	10	.	-7%	0.66	i	-2.3	0	-3	-0.7
CN1CCN(S(=O)(=O)c2cccc(C(=O)Nc3cc(C(F)(F)F)ccc3N3CCCCC3)c2)CC1	-15	-7	-15%	0.67	i	2.1	3	2	11
COc1cc(NC(=O)Cn2ncc(Cl)c(Cl)c2=O)c(C)cc1[N+](=O)[O-]	1.2	.	-7%	0.71	.	-3.0	8	13	18
Cc1cc(N2C(=O)C(O)=C(C(=O)c3ccco3)C2c2cccc(Oc3ccccc3)c2)no1 (centres undefined)	-0.6	94*	.	.	i	3.8	-11	-20	2.6
Cc1ccc(Nc2nc3c(c(=O)[nH]2)CCCC3)cc1	.	29	2%	0.68	.	0.0	.	.	.
CCCN1C[C@@H](C)[C@H](OC)CN(C)C(=O)c2cc(NS(=O)(=O)c3cn(C)cn3)ccc2OC[C@@H]1C	0.2	.	.	.	i	.	2	1	-1.9
NS(=O)(=O)c1ccc(O)c(NC(=O)c2ccc([N+](=O)[O-])cc2)c1	0.2	-2	-5%	0.66	i	-3.6	6	10	-2.0
CCN(C[C@H]1[C@H](c2ccccc2)[C@H](CO)N1C(C)=O)C(=O)NC(C)C	-4.0	.	.	.	i	.	2	0	-2.0
Cc1cc(C)nc(NN2C(=O)/C(=C/c3ccc(O)cc3)SC2=S)n1	3.7	99*	6%	0.72	i	94*	.	.	.
O=[N+]([O-])c1cccnc1SCc1ccccc1	3.4	-46	-3%	0.67	i	3.1	0	-1	-1.7
Cc1cccc(NC(=S)N(c2ccccc2)C(C)C)c1C	0.8	5	-5%	0.69	i	-1.7	.	.	.
C[C@H](O)[C@@]1(O)CC[C@H]2[C@@H]3CC[C@@H]4C[C@H](O)CC[C@]4(C)[C@H]3CC[C@@]21C	-3.3	0	.	0.77	i	1.2	-6	-3	-6.2
CC1(C)CC(=O)C=C(NCCN2CCN(C(=S)Nc3ccccc3)CC2)C1	0.3	.	.	0.7	i	-3.6	8	16	1.0
CCCn1c(CCC(=O)O)nc2cc(S(N)(=O)=O)ccc21	-4.4	.	1%	0.69	i	3.3	4	5	2.5
O=c1ccc2cc(S(=O)(=O)N3CCN(c4ccccc4)CC3)ccc2[nH]1	0.5	.	.	0.8	i	-4.0	6	14	-5.0
CCOc1nc(-c2ccc(OC)cc2)ccc1-c1noc(-c2cc(OC)c(OC)c(OC)c2)n1	.	-5	2%	0.69	.	13	.	.	.
C[C@@H]1CN([C@H](C)CO)C(=O)c2cccc(NC(=O)C3CCCCC3)c2O[C@@H]1CN(C)C	-1.7	.	.	.	i	.	3	22	-1.3
CC1(C)Cc2cccc(OCC(=O)N3CCN(c4ccccc4)CC3)c2O1	.	14	.	0.69	.	2.1	.	.	.
COC(=O)c1nn(-c2ccc(OC)cc2)ccc1=O	-1.8	-5	-7%	0.62	i	-0.4	8	15	-0.7
CCOC(=O)CCc1c(C)c(C#N)c2nc3ccccc3n2c1-n1cnc2ccccc21	.	-11	-1%	0.67	.	1.0	.	.	.
CCOC(=O)CCCCCC(=O)Nc1ccc2c(c1)C(=O)N([C@H](C)CO)C[C@@H](C)[C@H](CN(C)Cc1ccc3c(c1)OCO3)O2	-3.4	-1	.	0.77	i	0.8	-4	-2	-8.4
CCC12CN3CCN(CC(C3)/C1=N\NC(=O)c1ccc(F)cc1)C2	1.5	-13	0%	.	i	0.4	15	10	1.9
CCOc1ccc(C2C(C(=O)c3ccco3)=C(O)C(=O)N2Cc2cccnc2)cc1OC (centres undefined)	.	-9	5%&-9%	0.72	.	-3.4	.	.	.
CN(CCCNC(=O)Cn1cc2c(n1)CCCC2)C1CCCCC1	1.3	.	?	0.69	i	6.5	9	19	0.0
C[C@H](CO)N1C[C@H](C)[C@H](CN(C)C(=O)Nc2ccc(C(F)(F)F)cc2)Oc2ccc(NS(=O)(=O)c3ccc(Cl)cc3)cc2CC1=O	0.4	.	.	.	i	.	2	2	1.0
COCC(=O)Nc1ccc2c(c1)OC[C@@H](C)N(C(=O)Cc1cccnc1)C[C@@H](C)[C@@H](OC)CN(C)C2=O	-0.6	.	.	.	i	.	2	4	-0.6
COc1ccc(CC(=O)Nc2cc(=O)n(C)c(=O)n2C)cc1OC	-3.3	.	6%	0.69	.	3.4	0	9	-2.9
COc1cccc(CN(C)C(=O)c2cc(S(=O)(=O)NCc3ccccc3)ccc2C)c1OC	5.8	-16	0%	0.69	i	2.6	-14	-14	2.2
O=C(NC12CC3CC(CC(C3)C1)C2)c1cccnc1	.	.	1%	0.65	.	-1.7	.	.	.
Cc1cc(C)cc(N(CC(=O)NC2CCCC2)C(=O)C2(C)CC(=O)N=C3C=CC=CN32)c1 (centres undefined)	-1.8	-11	-10%	0.68	i	-1.3	12	9	-1.8
NC1=NC(=O)/C(=C/c2cn(CCC(=O)O)nc2-c2ccc(Cl)cc2)S1	-1.3	98*	.	0.75	i	3.9	12	6	-4.6
OC1C[N+]2(CCCCC2)C1	.	-2	11%	0.7	.	2.3	.	.	.
CCCC1S/C(=N/N=C/c2ccc(OC)cc2)N(Cc2ccccc2)C1=O (centres undefined)	.	-6	1%	.	.	-4.2	.	.	.
CC1CC(C)CN(CCCn2c(=S)[nH]c3ccccc3c2=O)C1 (centres undefined)	.	73	1%	0.82	.	-3.0	.	.	.
CC/C(=N/NC(=O)CNc1ccc(Cl)cc1C)c1ccccc1	-0.7	-1	?	.	i	1.1	7	3	4.6
O=C1C=C(c2ccccc2)CO1	8.6	.	-6%	.	i	0.2	10	8	-3.3
COc1ccc2c3c(n(C)c2c1)[C@@H](CO)N(C(=O)Nc1c(C)noc1C)CC31CCN(CC2CC2)CC1	1.0	.	.	.	i	.	4	15	-3.2
Cc1cc(C)n(C(=O)c2ccc([N+](=O)[O-])c(Cl)c2)n1	.	2	-1%	0.67	.	-0.5	.	.	.
O=C(COc1ccc(Cl)cc1Cl)NCCCNC(=O)c1cnccn1	-9.1	-2	.	0.61	i	4.6	2	-4	1.7
Cc1cc(NC(=O)CCN2C(=O)C3C4C=CC(C4)C3C2=O)ccc1Br (centres undefined)	0.3	-4	-1%	.	i	-2.3	-21*	-13*	-1.4*
CC(C)N1CCCC(C)(C(=O)Nc2nccc3ccccc23)C1 (centres undefined)	-4.7	.	.	.	i	0.7	6	14	-1.1
CCOC(=O)N1CCC(NC(=O)c2cc(COc3c(C)cccc3C)on2)CC1	0.0	2	.	0.71	i	-5.4	0	-6	2.2
CNC[C@H]1Oc2cc(-c3cccc(F)c3)ccc2S(=O)(=O)N([C@H](C)CO)C[C@@H]1C	1.6	.	.	.	i	.	4	0	3.4
COc1cc(OC)cc(C(=O)NC(=S)Nc2cc3oc4ccccc4c3cc2OC)c1	1.1	-9	.	0.74	i	1.7	3	10	1.1
COc1ccc(-c2cn3cc(C(=O)NN)ccc3n2)cc1	2.3	.	-8%	0.67	i	8.0	-11	8	-0.2
CCNC(=S)Nc1cc(Cl)ccc1Oc1ccccc1	.	-4	-10%	0.68	.	4.8	.	.	.
C[C@@H]1CN([C@H](C)CO)C(=O)c2cccc(NC(=O)C3CC3)c2O[C@@H]1CN(C)S(=O)(=O)c1cn(C)cn1	-1.2	.	.	.	i	.	2	7	0.4
C[C@H]1CN([C@@H](C)CO)C(=O)c2cc(NC(=O)Cc3ccccc3)ccc2O[C@@H]1CN(C)S(=O)(=O)c1ccc(Cl)cc1	-3.4	.	.	.	i	.	0	11	2.0
COCCN(CCOC)Cc1cc(=O)oc2cc(C)ccc12	-0.8	.	.	.	i	0.1	11	4	4.0
CC(C)Cc1ccc(C(C)/C=C2/CCC(CN3CCCCC3)C2=O)cc1 (centres undefined)	-0.8	.	.	.	i	-1.8	.	.	.

Further results
SMILES	AF4-AF9 inh	ALR H2O2 inh	Vif A3G	Ecoli growth	FGF22 binding	HNF4A DNA FP	Ecoli rRNA inh	Ecoli rRNA inh OD600	Ecoli rRNA inh RFP
Nc1nnnn1/N=C/c1ccc(N2CCCCC2)c([N+](=O)[O-])c1	.	-22	-4%	.	.	1.1	.	.	.
Cc1ccc(SCC(=O)Nc2cccc(NC(=O)c3ccco3)c2)cc1	.	-3	2%	0.76	.	1.1	.	.	.
Cc1ccc(NC(=O)c2sccc2-n2cccc2)c(C)c1	.	9	-3%	0.72	.	1.5	.	.	.
CCC(=O)c1ccc(OCC(=O)NC2CCCC2)cc1	-1.1	-1	-8%	0.7	i	-1.3	2	10	-1.2
CCCNC(=O)Nc1ccc2c(c1)OC[C@H](C)N(C(=O)CC)C[C@@H](C)[C@H](OC)CN(C)C2=O	-1.7	.	.	.	i	.	1	5	-1.5
Cc1ccccc1OCCn1cc(C(=O)O)c2ccccc21	0.8	-23	.	0.67	i	1.0	-36	-33	-4.1
COc1cc(NC(=O)c2cc(-c3cc(F)ccc3OC(C)C)n[nH]2)cc(OC)c1OC	-2.7	.	.	.	i	-0.9	-21	-26	-3.4
CCCCS(=O)Cc1ccccc1 (centres undefined)	.	.	-5%	0.74	.	-1.0	.	.	.
O=C(CCN1CCCCC1)N[C@H]1CC[C@@H](CCNS(=O)(=O)c2ccc(Cl)cc2)O[C@@H]1CO	3.4	.	.	.	i	.	-1	1	0.9
O=C(O)CCC(=O)c1ccc2c(c1)OCCCO2	.	-4	?	0.71	.	-2.5	.	.	.
OC[C@@H]1CN(CCN2CCOCC2)C[C@H](n2cnc3c(Nc4ccccc4)ncnc32)O1	-2.0	.	.	.	i	-1.8	11	20	0.5
CCCn1nc(C(=O)NNC(=O)Cc2ccc(S(=O)(=O)N3CCOCC3)s2)c2ccccc2c1=O	1.2	-15	0%	0.69	i	3.2	-3	-5	-2.5
COc1ccc(CNC(=O)C(C)Sc2ccc(S(=O)(=O)N3CCOCC3)cn2)cc1 (centres undefined)	-2.4	.	0%	0.63	i	0.8	3	5	0.1
COc1ccc(/C=C/C(=O)Nc2ccccc2C(=O)NCC(c2ccc(OC)cc2)N(C)C)cc1 (centres undefined)	26*	-1	.	.	i	0.0	-9	-39	11
N#C[C@H]1[C@H](c2ccc(C#CC3CCCC3)cc2)[C@@H](CO)N1S(=O)(=O)c1ccccc1	-0.4	.	.	.	i	.	0	-19	25
CCOc1ccc(C(=O)Cn2cnnc2C#N)cc1	-3.4	-5	.	0.63	.	-2.9	3	6	0.8
Cc1cc(C)c(Cn2cnc(-c3ccc([N+](=O)[O-])cc3)c2)c(C)c1	11	-37	16%	0.68	i	1.7	-2	2	1.7
COCC(=O)Nc1ccc2c(c1)C(=O)N(C)[C@@H]1CC[C@H](CC(=O)Nc3ccccc3)O[C@@H]1CO2	3.3	.	.	.	i	.	3	1	4.5
CC(=O)c1cc(NC(=O)c2ccccc2)c(=O)oc1C	-5.1	5	3%	0.65	i	0.1	9	2	-2.4
